motility: Vibrio cholerae motility inhibitors, OD read-out (AID 588778) | Vibrio cholerae motility, OD read-out; higher % means a stronger effect; test concentration not given here; primary cut-off and reference of the scale not given here; strong numbers were not always called active | one-dose inhibition, %; IC50 in µg/mL for titrated hits | 10,000 tested, under 10 active; in the data active = confirmed in a dose series
motility viability: recorded beside motility, whose call it bears; inhibition, %; measured here: bacterial viability at 10 ug/mL;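 higher means fewer living bacteria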
* marks the source's active call; other numbers are inactive results.

molecule | motility | motility viability
O=c1c2ccccc2nc(/C=C/c2cccc([N+](=O)[O-])c2)n1CCCO | -4% | -6
Cc1cc(C)nc(Sc2ccc(S(C)(=O)=O)cc2[N+](=O)[O-])n1 | 12% | 0
Clc1ccc(SCCCn2ccnc2)cc1 | 96% | 100
Nc1ncnc2nc(Sc3ccc(Cl)cc3)[nH]c12 | 17% | 4
CCCCOC(=O)CNc1nnc(SCC(=O)OCC)[nH]c1=O | 8% | 3
OC(COc1ccc(I)cc1)Cn1c(C(F)(F)F)nc2ccccc21 (stereo unspecified) | 19% | 2
CCOC(=O)c1c(C2CC2)csc1NC(C)=O | -8% | -6
CCc1ccc(-c2csc(N)n2)s1 | 9% | -3
Cc1cc(NC(=O)CSc2n[nH]c(CC(C)C)n2)no1 | 7% | 4
COc1ccc(N2C(=O)CSC23CCCCC3)cc1 | 1% | -1

In a second layout: results already given.
Cc1cc(C)nc(Sc2ccc(S(C)(=O)=O)cc2[N+](=O)[O-])n1
  motility = 12% | motility viability = 0
Clc1ccc(SCCCn2ccnc2)cc1
  motility = 96% | motility viability = 100

Remaining list, next part:
molecule | motility | motility viability
COC(=O)c1ccccc1N(C)S(C)(=O)=O | 5% | 4
CCn1c2ccccc2c2cc(NS(=O)(=O)c3ccc(OC)cc3)ccc21 | -9% | -6
COc1ccc(-c2nn(-c3ccccc3)cc2C(=O)Nn2cnnc2)cc1OC | -11% | -9
Cc1cc(=O)oc2c1ccc1occ(NO)c12 | -5% | -3
COc1ccc(-n2nc3ccc(NS(C)(=O)=O)cc3n2)cc1Cl | 11% | 1
Cc1ccccc1CSCCNS(=O)(=O)c1cccs1 | 16% | 27
CCSc1ccc(C(=O)Nc2cccc(C)n2)cc1[N+](=O)[O-] | 0% | -10
O=C(Nc1ccccc1OCF)C(F)(F)C(F)(F)C(F)(F)F | 2% | -2
O=C(Cn1cnc2ccccc21)NCc1ccccc1 | 6% | 4
O=C(CCCc1ccccc1)Nc1scc2c(=O)oc3ccccc3c12 | -11% | -7
O=[N+]([O-])c1nn(Cc2c(F)cccc2Cl)cc1Cl | 1.4µg/mL* | 26*
O=C(Nc1ccc(F)c(Cl)c1)c1ccc([N+](=O)[O-])o1 | 84% | 94
COc1ccccc1/C=C/c1nn2c(-c3ccccc3Cl)nnc2s1 | -3% | -5
Cc1cccc(NC(=O)C(=O)NCCc2ccccc2F)c1C | -21% | -10
CC(C)(C)C(=O)Nc1ccccc1C(=O)Nc1cccnc1 | 1% | 1
COc1cc(C)ccc1OCCCOc1ccccc1C(C)C | -8% | 2
S=c1nc(SCCOc2ccccc2)[nH]c2ccccc12 | 23% | -4
COCc1nnc(NC(=O)Cc2ccccc2[N+](=O)[O-])s1 | -16% | -1
CCSc1nnc(NC(=O)C2C3C=CC(C3)C2C(=O)O)s1 (stereo unspecified) | 9% | 1
O=C1C2C3c4ccccc4C([N+](=O)[O-])(c4ccccc43)C2C(=O)N1c1nc2ccccc2s1 (stereo unspecified) | 10% | -1
COc1ccc(Br)cc1/C=C/c1nc2ccccc2c(=O)o1 | 11% | 9
COc1ccc(C2c3cc(OC)c(OC)cc3CCN2S(C)(=O)=O)cc1OC (stereo unspecified) | 13% | 2
CC1=NCCN1S(=O)(=O)c1ccc(I)cc1 | 6% | -2
Cn1c(-c2ccccc2)c(CCO)c2ccccc21 | -3% | -3
CC(C)OC(=O)c1cc2c(nc1SCC#N)CCCCC2 | 4% | 17
COc1ccccc1C/C(N)=N/OC(=O)c1cccc([N+](=O)[O-])c1C | -1% | 23
NS(=O)(=O)c1ccc(NC(=S)Nc2ccc(C(=O)N3CCOCC3)cc2)cc1 | -2% | -7
CN1CCN(NC(=O)Nc2cccc(Cl)c2Cl)CC1 | 10% | 3
Cc1ccc(C(=O)NC(=S)NNC(=O)c2ccc(NC(=O)C(C)C)cc2)cc1Br | 11% | 6
Nc1nnc(COc2cccc(Cl)c2Cl)s1 | 0% | -5
Cc1cc2oc(C(=O)NC3CCS(=O)(=O)C3)c(C)c2cc1C (stereo unspecified) | -18% | -13
COc1cc(C=O)ccc1OC(=O)c1nsc(Cl)c1Cl | 2% | 3
O=C(NCc1ccco1)/C(=C\c1ccco1)NC(=O)c1ccccc1Cl | 0% | -2
Cc1cc(=O)oc2cc(Nc3ccccc3)ccc12 | -4% | -9
CCOC(=O)c1c(NC(=O)Cn2nnc(-c3ccccc3)n2)sc2c1CCCC2 | -23% | -13
COc1ccc(Cl)cc1NC(=O)c1ccc(-c2ccccc2[N+](=O)[O-])o1 | -10% | -8
O=C(CCc1ccccc1)OCC(F)(F)C(F)F | -6% | 4
COC(=O)c1ccccc1NC(=O)C(NC(=O)c1cccs1)c1ccccc1 (stereo unspecified) | 6% | -1
Cc1c(OCc2n[nH]c(=S)n2C)ccc2ccccc12 | 14% | 7
Nc1nnc(SCC(=O)Nc2ccc(F)c(Cl)c2)n1-c1ccccc1 | -2% | -9
Cc1ccc(C(=O)Nc2ccccc2C(=O)Nc2ccccn2)cc1Cl | -17% | -9
COc1ccc(C=O)cc1Cn1cnc2cc(C)c(C)cc21 | 13% | -9
Nc1ccc(-c2cc(-c3cccc(N)c3)nc(-c3ccccc3)n2)cc1 | -6% | -10
Cc1nc(NC(=O)Cc2cccc3ccccc23)ccc1Br | -7% | 13
COc1ccc(NC(=O)N2CCn3c2nc2ccccc23)cc1 | 7% | -2
CCc1ccc(O)c(NC(=S)NC(=O)c2cccc3ccccc23)c1 | 91% | 26
CCc1noc(C)c1C(=O)Nc1cccc(Cn2cc(Cl)cn2)c1 | -9% | -2
CCOc1ccc2[nH]c(S(=O)(=O)CC)nc2c1Cl | -2% | 7
O=C(OCC(=O)c1ccc(Cl)cc1Cl)c1ccc(N2C(=O)C3C4C=CC(C5CC45)C3C2=O)cc1 (stereo unspecified) | -3% | -2
Cc1ccc(-c2cc(C(=O)N3CCCC(C)C3)c3ccccc3n2)c(C)c1 (stereo unspecified) | 4% | 2

Continued.
molecule | motility | motility viability
CCC(=NCCc1c[nH]c2ccccc12)c1c(O)n(-c2cccc(F)c2)c(=O)[nH]c1=O | 4% | -1
Cc1cc(Oc2ccccc2)nc(SCC(N)=O)n1 | -7% | -11
Cc1c(C(=O)NC(C)C2CCCO2)oc2ccccc12 (stereo unspecified) | -10% | -8
O=C(c1cc2nc(-c3ccccc3)cc(-c3ccccc3)n2n1)N1CCN(C(=O)c2ccco2)CC1 | -8% | 0
CCOC(=O)c1cnc(Nc2nc3ccccc3o2)nc1CN1CCN(c2ccccc2)CC1 | -3% | -9
CC(C)CC(=O)NC(=S)Nc1nc(-c2cccc3ccccc23)cs1 | -11% | -10
COc1cc([N+](=O)[O-])ccc1NC(=O)NCc1ccco1 | -20% | -11
CC(=O)Nc1ccc(OC(=O)CN2C(=O)CN(c3ccc(Br)cc3)C2=O)cc1 | 8% | 24
O=[N+]([O-])c1ccc(Sc2nnc(COc3ccccc3)n2-c2ccccc2)c2cccnc12 | -3% | -7
O=C(Nc1nnc(SC/C=C/c2ccccc2)s1)c1ccco1 | -18% | -9
COC(=O)c1sc(NC(=S)NC(=O)c2cc(I)ccc2Cl)nc1C | 26% | 0
COc1ccc(CCN2C(=O)N(c3ccc(F)cc3)C(=O)C2CC(=O)Nc2ccc(OC)cc2)cc1 (stereo unspecified) | 9% | -2
COc1ccc(C2c3cc(OC)c(OC)cc3CC(=O)N2NC(=O)c2ccco2)cc1 (stereo unspecified) | -5% | 1
Cc1cc(Sc2ccccn2)c2ccccc2n1 | 8% | -5
O=C(Nc1ccncc1)c1cccc(C(F)(F)F)c1 | 40% | 13
Clc1cc(-n2cnnn2)ccc1-c1ccc(-n2cnnn2)cc1Cl | -17% | 5
COc1ccc(Cl)cc1C(=O)NCc1cccc(CNC(=O)c2cc(Cl)ccc2OC)c1 | 7% | -1
CC(=O)Nc1ccc(Br)cc1C(=O)C(=O)O | 7% | -1
O=C(C1CCCN(Cc2ccccc2Br)C1)N1CCCC1 (stereo unspecified) | -6% | -5
O=c1c2ccccc2nc(SCc2cccc(F)c2)n1Cc1ccco1 | -4% | -3

Part of the list above in order of SMILES length, ascending:
molecule | motility | motility viability
Clc1ccc(SCCCn2ccnc2)cc1 | 96% | 100
COC(=O)c1ccccc1N(C)S(C)(=O)=O | 5% | 4
Cc1cc(=O)oc2cc(Nc3ccccc3)ccc12 | -4% | -9
COc1cc(C)ccc1OCCCOc1ccccc1C(C)C | -8% | 2
O=C(Nc1ccncc1)c1cccc(C(F)(F)F)c1 | 40% | 13
O=C(C1CCCN(Cc2ccccc2Br)C1)N1CCCC1 (stereo unspecified) | -6% | -5
Cc1c(OCc2n[nH]c(=S)n2C)ccc2ccccc12 | 14% | 7
Cc1cccc(NC(=O)C(=O)NCCc2ccccc2F)c1C | -21% | -10
Cc1cc(NC(=O)CSc2n[nH]c(CC(C)C)n2)no1 | 7% | 4
O=C(Nc1nnc(SC/C=C/c2ccccc2)s1)c1ccco1 | -18% | -9
O=c1c2ccccc2nc(SCc2cccc(F)c2)n1Cc1ccco1 | -4% | -3
COc1ccccc1/C=C/c1nn2c(-c3ccccc3Cl)nnc2s1 | -3% | -5
Clc1cc(-n2cnnn2)ccc1-c1ccc(-n2cnnn2)cc1Cl | -17% | 5
O=C(Nc1ccc(F)c(Cl)c1)c1ccc([N+](=O)[O-])o1 | 84% | 94
O=C(NCc1ccco1)/C(=C\c1ccco1)NC(=O)c1ccccc1Cl | 0% | -2
Nc1ccc(-c2cc(-c3cccc(N)c3)nc(-c3ccccc3)n2)cc1 | -6% | -10
COc1ccc(C2c3cc(OC)c(OC)cc3CCN2S(C)(=O)=O)cc1OC (stereo unspecified) | 13% | 2
O=c1c2ccccc2nc(/C=C/c2cccc([N+](=O)[O-])c2)n1CCCO | -4% | -6
COc1ccc(C2c3cc(OC)c(OC)cc3CC(=O)N2NC(=O)c2ccco2)cc1 (stereo unspecified) | -5% | 1
O=[N+]([O-])c1ccc(Sc2nnc(COc3ccccc3)n2-c2ccccc2)c2cccnc12 | -3% | -7

Continued.
molecule | motility | motility viability
Nc1c([N+](=O)[O-])cc(F)c(N2CCSCC2)c1Br | -29% | -3
Cc1cc(N2CCOCC2)nc(SCCCCSc2nc(C)cc(N3CCOCC3)n2)n1 | -1% | -6
COc1ccc(C(=O)CSc2ccc(C)cc2)cc1 | -18% | -7
COc1ccc(CCc2nc(C)cc(CN(C)C)c2O)cc1OC | 5% | -2
COc1ccc(NC(=O)NCc2ccc(C(=O)O)cc2)c(OC)c1 | -7% | -1
COc1ccc(-c2noc(-c3cc(Cl)ccc3Cl)n2)cc1OC | 7% | -2
COc1cc2c(cc1NC(=O)CN(C)S(=O)(=O)c1ccccc1)oc1ccccc12 | 3% | -7
O=C(NCCCn1ccnc1)c1c(F)cccc1F | 8% | -3
CCOC(=O)c1cc2cc([N+](=O)[O-])cc(OC)c2oc1=O | 4% | 1
COC(=O)c1ccccc1NC(=O)CSc1nc2c(c(C(F)(F)F)n1)CCCC2 | 13% | 5
O=C(CSc1nnc(-c2ccccc2Br)o1)c1cc2ccccc2oc1=O | 2% | -4
COc1ccc(Nc2nc(N3CCOCC3)nc(N3CCOCC3)n2)c(OC)c1 | -15% | -9
N#CCNC(=O)c1cccc(I)c1 | 16% | 5
Cc1nnc(SCc2nnnn2-c2ccccc2)[nH]c1=O | 8% | 2
O=C(N1CCOCC1)N(CCN1CCOCC1)Cc1cccc(Cl)c1 | 15% | -1
CCC1(C)CC(C(CC#N)c2ccc(C)cc2)CCO1 (stereo unspecified) | 8% | -2
Brc1ccc(OCc2nnnn2-c2ccccc2)cc1 | 24% | 1
Cc1ccc(Nc2nc3ccccc3n3cnnc23)cc1F | -24% | -9
CCC(=O)Nc1ccc(C(=O)Nc2nncs2)cc1 | 13% | 28
O=C(Cn1cc(C(=O)COc2ccccc2)c2ccccc21)NCc1ccc2c(c1)OCO2 | -3% | 18
COC(=O)C1=C(C)NC(=O)CC1c1cc(OC)c(OC)c(OC)c1Br (stereo unspecified) | 3% | 6
O=C(Nc1ccccc1N1CCCC1)C(Cl)(Cl)Cl | -7% | -8
COc1ccc(NC(=O)n2ncc(-c3ccc(Cl)cc3)c2N)c(OC)c1 | -14% | 1
Cc1cc(NC(=O)c2ccccc2-c2ccccc2C(=O)O)no1 | -4% | -2
O=C(Cc1cccs1)Nc1ccc(Br)cc1C(=O)O | 9% | 12
CCOC(=O)N1CCN(C(=O)c2ccc(OC)c(I)c2)CC1 | 10% | 0
CCCC(=O)Nc1ccc(C(=O)/C=C/c2ccc(Cl)cc2Cl)cc1 | 2% | 1
Cc1occc1C(=O)NCc1cccc(Cl)c1 | 19% | 6
CC(=O)Nc1ccc(S(=O)(=O)Oc2ccc(C=C3C(=O)c4ccccc4C3=O)cc2)cc1 | 25% | 5
COC(=O)c1ccc(OCC(=O)NCc2ccco2)c(OC)c1 | 9% | 3
c1ccc2[nH]c(CCn3c4ccccc4c4ccccc43)nc2c1 | 15% | 11
CSc1ccccc1-n1[nH]nnc1=S | 5% | -3
O=C(Nc1ccccc1)C(=S)N1CCCC1 | -8% | 4
CN(c1ccccc1)S(=O)(=O)c1cc(Cl)c(Cl)cc1Cl | 3% | 2
O=[N+]([O-])c1cccc(-c2cn(-c3ccccc3NCc3ccccc3)cn2)c1 | -15% | -8
Cc1nn(Cc2ccccc2)c(C)c1-c1cccc([N+](=O)[O-])c1 | -7% | -5
O=S(=O)(NCC1CCCO1)c1ccc(Cl)c(C(F)(F)F)c1 (stereo unspecified) | 10% | -1
CCOc1cccc(CN(C(C)=O)c2ccc3[nH]c(=O)[nH]c3c2)c1OCc1ccccc1 | 1% | -5
COC(=O)c1c(N)sc(/C(C)=C/C#N)c1C | 13% | -1
CC(=O)c1cccc(NS(=O)(=O)N2CCCCCC2)c1 | 8% | 1

Screening data as filed in PubChem.

These rows are one share of the data; rates above refer to the full screens.
